High-throughput results deposited in PubChem BioAssay by Broad Institute.
ID4 SMM – binds human ID4 protein on microarray; small molecule microarray, Flag-ID4 binding, fluorescence F/B; AID 624137; calls only; hit rate 1.2% among 31,000;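 active = spot signal over background at p below 0.07 in all four prints; compounds were printed on slides so no solution concentration is given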;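 note: a binder raises fluorescence above local background on the spot; about 2 pmol printed per array spot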
Target sequence (P47928 whole entry, looked up): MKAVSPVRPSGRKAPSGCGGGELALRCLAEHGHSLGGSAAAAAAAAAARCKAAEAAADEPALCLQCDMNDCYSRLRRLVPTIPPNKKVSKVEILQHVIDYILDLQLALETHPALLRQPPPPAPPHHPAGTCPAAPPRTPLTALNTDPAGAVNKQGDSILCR
Calls only; i = inactive.

| mol | ID4 SMM |
| --- | --- |
| CN(C)CCCC1(c2ccc(F)cc2)OCc2cc(C#N)ccc21 (stereo not given) | i |
| Cc1ccc(N(CC2=NCCN2)c2cccc(O)c2)cc1 | i |
| Oc1ccc(C2CNCCc3c2cc(O)c(O)c3Cl)cc1 (stereo not given) | i |
| COc1cc2ncn(-c3cc(OCc4ccccc4C(F)(F)F)c(C(N)=O)s3)c2cc1OC | i |
| COc1ccc(C2CNC(=O)C2)cc1OC1CCCC1 (stereo not given) | i |
| CCC(NC(C)C)C(O)c1ccc(O)c2[nH]c(=O)ccc12 (stereo not given) | i |

In the list so far, these have nitrogen in an aromatic ring.
| mol | ID4 SMM |
| --- | --- |
| COc1cc2ncn(-c3cc(OCc4ccccc4C(F)(F)F)c(C(N)=O)s3)c2cc1OC | i |
| CCC(NC(C)C)C(O)c1ccc(O)c2[nH]c(=O)ccc12 (stereo not given) | i |

Only part of the results is shown, so the mix of outcomes need not match the whole.
